Source: PubChem
ClpP mod: qHTS Assay for Activators of ClpP; Potency, µM (titrated, usually from 57.5 µM), for the others: at the highest dose activity change, negative = active; ATP-dependent Clp protease proteolytic subunit (Bacillus subtilis (strain 168)), P80244; purified B. subtilis ClpP, FRET peptide cleavage, 20 min; AID 651965, 2013; 340,000 compounds, 1.9% hits; active = well fitted falling curve with a large enough effect; inconclusive = small, poorly fitted or top-dose-only effect; inactive = no such curve, though single readings can be large or run the other way; also: potency is read from the fitted curve at half-maximal effect; the source files actives as falling curves though it sought activators and does not explain the sign; nearly all actives have a fitted effect of over 65% in size; many hits overshoot -100%
Target sequence (P80244 whole entry, looked up): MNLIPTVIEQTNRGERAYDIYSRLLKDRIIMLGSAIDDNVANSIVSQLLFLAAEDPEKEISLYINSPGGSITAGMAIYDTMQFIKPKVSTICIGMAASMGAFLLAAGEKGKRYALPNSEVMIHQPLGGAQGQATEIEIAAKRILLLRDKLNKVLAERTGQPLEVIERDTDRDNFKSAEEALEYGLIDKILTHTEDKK
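Buffer: 100 mM Tris/HCl pH8, 100 mM KCl, 0.05% low protease BSA, 2.5% glycerol, 0.01% Tween-20. ClpP 10 microg/mL final; 20 min RT; delta FRET normalized to ADEP and DMSO controls.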
gsp antagonist: antagonizes gsp, the McCune-Albright syndrome mutation | gsp-mutant cells, cAMP HTRF, 30 min; control for the full effect not named in the record | Potency, µM (series often up to 76.9 µM), for the others: at the highest dose activity change, negative = inhibition, hits mostly inhibitors | 340,000 compounds, 0.4% hits; active = falling curve of any shape with a large fitted effect; inconclusive = falling curve, mostly with a smaller effect; inactive = flat or rising curve; cell line not stated here;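 also: intracellular cAMP measured with PDE inhibitor Ro 20-1724 present during compound exposure; potency is read from the fitted curve at half-maximal effect; % is scaled to controls: 0 for no effect and ±100 for the full control effect; nearly all actives have a fitted effect of over 65% in size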
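HTRF cAMP read-out (cAMP-d2 plus anti-cAMP antibody-K in lysis buffer, 30 min RT). Before lysis, cells are exposed to compounds with […] for 30 min at 37C in DPBS containing Ca/Mg, BSA and Tween 20.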
PINK1 modulator: PINK1 expression modulation. 410,000 compounds, 0.2% hits. Potency, µM (highest dose often 76.6 µM), for the others: at the highest dose activation (PINK1 increase), hits mostly activators. AID 624263. PINK1 immunofluorescence, high-content cytometry, 24 h; active = well fitted activation curve with a large enough effect; inconclusive = small, poorly fitted or top-dose-only effect; inactive = flat fitted curve, though single readings scatter; cell line not stated here;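 also: potency is read from the fitted curve at half-maximal effect; % of control where 0% means no effect; nearly all actives have a fitted effect of over 65% in size; a mitochondrial uncoupler was the plate control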
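Stable cell line treated 24 h with compounds at 5 concentrations (CCCP controls), then fixed and immunostained for PINK1 plus nuclear and cell stains; PINK1 immunofluorescence quantified by laser-scanning microplate cytometry.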
D2 agonist: human D2 receptor agonism in beta-arrestin assay; activation, % (test concentration not listed); DiscoveRx PathHunter D2 beta-arrestin, luminescence, 90 min; 100% = 57 uM dopamine signal; 360,000 compounds, 0.084% hits; AID 624465; P14416; in the data active = activation above about 40%; inconclusive = about 15% to 40%; inactive = below about 15%; also: compound concentration not given in the record; the text of the record calls up to 30% inactive
Target sequence (P14416 whole entry, looked up): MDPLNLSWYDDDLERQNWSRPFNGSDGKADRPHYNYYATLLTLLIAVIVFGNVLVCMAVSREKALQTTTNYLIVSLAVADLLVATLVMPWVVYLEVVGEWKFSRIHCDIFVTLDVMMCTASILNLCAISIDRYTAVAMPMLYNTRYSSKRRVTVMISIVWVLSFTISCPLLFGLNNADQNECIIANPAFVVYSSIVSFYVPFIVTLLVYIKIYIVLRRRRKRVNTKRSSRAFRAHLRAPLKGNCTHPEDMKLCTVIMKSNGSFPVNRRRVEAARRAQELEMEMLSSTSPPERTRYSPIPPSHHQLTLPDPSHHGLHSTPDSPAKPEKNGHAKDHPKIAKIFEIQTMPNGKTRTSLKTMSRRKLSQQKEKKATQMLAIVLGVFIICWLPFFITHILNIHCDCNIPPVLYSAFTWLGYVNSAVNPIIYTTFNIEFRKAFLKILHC
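DiscoveRx PathHunter D2 beta-arrestin cells (2,100/well) attached overnight, then compound-stimulated 90 min at 37 C in HBSS/10 mM HEPES/0.1% Tween-20 buffer; beta-galactosidase complementation read by luminescence after 1 h at ambient temperature. Dopamine 57 uM final (EC100) as control.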
Sfp inh: inhibitors of Bacillus subtilis Sfp phosphopantetheinyl transferase; Biochemical Sfp PPTase activity, qHTS; Potency, µM, for inactives: max response, negative = inhibition, most hits filed as inhibitors; 310,000 compounds, 3.5% hits; AID 1490; active = well fitted inhibition curve with a large enough effect; inconclusive = small, poorly fitted or top-dose-only effect, or another doubt; inactive = no such curve, though single readings can be large or run the other way;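 also: the enzyme is Sfp with the accession as filed and its product quenches rhodamine fluorescence; potency is read from the fitted curve at half-maximal effect; 0% = enzyme reaction without inhibitor and -100% = no enzyme wells; top concentration of the series not given in the record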
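Fluorescence-quenching assay with 15 nM Sfp, 5 uM rhodamine-CoA and 12.5 uM BHQ-2-labelled ybbR peptide in pH 7.6 Hepes/MgCl2 buffer. Enzyme was pre-incubated with compound for 15 min at room temperature. Rate was taken from the 30-min fluorescence change (525/598 nm).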
Menin MLL FP FL: menin-MLL binding inhibition, fluorescein peptide. FP activity change, % at 61.4 µM. Fluorescence polarization, fluorescein-MLL peptide displacement from menin. 290,000 tested, under 10 active. AID 1766; inconclusive = falling polarisation curve, or a change in total fluorescence; inactive = total fluorescence flat and polarisation flat or rising; no compound was filed as active; the % refers to the polarisation; negative = inhibition;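 also: % of control where 0% means no effect; inhibitors lower the polarisation; unlabelled MLL peptide was the positive control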
gsp ag: activates gsp, the McCune-Albright syndrome mutation; gsp mutant cells, cAMP HTRF, 30 min; control for the full effect not named in the record; Potency, µM (top dose mostly 76.9 µM), for the others: top-dose activation (cAMP increase), hits mostly activators; 340,000 compounds, 0.13% hits; AID 624287; active = well fitted activation curve with a large enough effect; inconclusive = small, poorly fitted or top-dose-only effect, or another doubt; inactive = no such curve, though single readings can be large or run the other way; cell line not stated here;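 also: phosphodiesterase inhibitor Ro 20-1724 added with compounds to block cAMP breakdown; potency is read from the fitted curve at half-maximal effect; nearly all actives have a fitted effect of over 60% in size; about a fifth of the inactives were tested at one dose only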
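Cells in DMEM/10% FBS with G418 were pretreated with compounds in DMSO plus […] (300 uM stock) for 30 min at 37C. cAMP was measured by HTRF (cAMP-d2 plus anti-cAMP antibody-K) after 30 min at room temperature.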
* hit, by the source's call; ? = inconclusive; . = not tested or not shown; & = joins results of further samples; [ ] = remark or other dose.

SMILES	ClpP mod	gsp antagonist	PINK1 modulator	D2 agonist	Sfp inh	Menin MLL FP FL	gsp ag
CCCCCC(=O)N(O)C1CC(=O)N(c2ccccc2)C1=O (stereo unspecified)	0.6%	0%	-0.9%	-2.8	13µM*	0.0	0%
Cc1ccc2c(c1)C(c1ccc(F)cc1)N(C(=O)c1ccc(S(=O)(=O)N(C)C)cc1)CC(=O)N2 (stereo unspecified)	-2.5%	-5%	-0.1%	-4.7	-13%	2.0	-24%
c1ccc2c(c1)ncn2CCOCCOCCn1cnc2ccccc21	?	0%	-0.8%	2.8	2%	0.1	?
COCCNC(=S)NN(c1ccccc1)c1ccccc1	.	13%	-1.2%	-3.8	?	3.4	13%[15.4 µM]
CCc1ccc2[nH]c(C(=O)Nc3ccc(C)c(F)c3)cc2c1	23%	-1%	0.3%	-0.5	11%	11	16%
O=C(Nc1cc(F)ccc1F)c1cccc(-n2cnnn2)c1	.	-4%	4.9%	-4.9	.	.	0%[15.4 µM]
CCOC(=O)N1CCC(N2Cc3cccc(C(=O)O)c3C2=O)CC1	0.2%	-5%	-0.3%	-5.2	21%	0.7	-22%
CCN(CC)C(=O)CSc1nnc(-c2ccccn2)n1Cc1ccccc1	.	-6%	-0.6%	-2.8	8%	-1.6	6%[15.4 µM]
Cc1cc(Cl)c(S(=O)(=O)N2CCCCCC2)cc1OCC(N)=O	-1.6%	-17%	-0.7%	-1.2	9%	2.9	-29%
O=C(COC(=O)c1cc(S(=O)(=O)N2CCOCC2)ccc1O)Nc1ccc2c(c1)OCO2	?	?	-1.6%	5.2	.	.	-8%
Cc1cc(C)cc(NC(=O)CSc2nnc(-c3ccc(S(=O)(=O)N4CCCC4)cc3)o2)c1	-0.8%	-17%	-2.6%[38.3 µM]	-4.0	12%	7.3	-40%[inhibitor]
NC(=O)c1cc[n+](Cc2ccc([N+](=O)[O-])cc2)cc1	-1.6%	1%	0.7%	0.8	10%	-2.6	-70%[inhibitor]
COC(=O)c1ccc(NC(=O)CN2CCN(CCO)CC2)cc1	.	5%	-0.8%	-0.1	6%	-0.4	-1%
COc1cc(S(=O)(=O)N2CCOCC2)ccc1NC(=O)COC(=O)c1ccc(Cl)nc1	-1.4%	-7%	7.7%	0.5	.	.	2%
O=C(NCC1CCCO1)C1CCCN(S(=O)(=O)c2ccc(Br)cc2)C1 (stereo unspecified)	-1.2%	-4%	1.4%	0.5	10%	.	-18%
Cc1ccc(C(=O)OCC(=O)Nc2ccc(C(N)=O)cc2)s1	1.2%	8%	0.9%	-3.3	.	.	9%
O=C(Nc1nc(-c2ccc(-c3ccccc3)cc2)cs1)c1cc([N+](=O)[O-])ccc1N1CCOCC1	-5.0%	7%	4.8%	-5.6	2%	-2.9	-8%
COc1ccccc1-c1nc2n(n1)C(c1ccccc1Cl)C(C(N)=O)=C(C)N2 (stereo unspecified)	-5.5%	3%	1.0%	0.9	23%	3.9	-4%
Cc1nc(NC(=O)COC(=O)C2CC2C)c(Cl)cc1Cl (stereo unspecified)	0.3%	8%	0.2%	-0.1	.	.	20%
CCCCC(=O)NC(N1CCCCC1)C(Cl)(Cl)Cl (stereo unspecified)	2.0%	1%	2.3%	-2.4	9%	-1.1	7%
COc1cccc(C(=O)COC(=O)C2CC(=O)N(c3ccc(Oc4ccccc4OC)cc3)C2)c1 (stereo unspecified)	0.1%	-5%	1.1%	-3.2	3%	.	-34%
Cc1ccccc1Nc1c(-c2ccncc2)nc2ccc(Cl)cn12	-16%&-18%	?	0.6%&1.2%	-0.6	-4%	-0.8	-1%
Cc1ccc(C(=O)NCC(=O)Nc2ccc3c(c2)OCCO3)cc1	-2.9%	6%	-0.5%	-2.5	.	.	6%
COc1cccc(NC(=O)C2(C)CCN2C(=O)CCc2ccc(Cl)cc2Cl)c1 (stereo unspecified)	0.0%	.	-0.3%	-3.0	.	.	.
C#CCn1c(S(=O)(=O)Cc2ccc(F)cc2)nc(-c2ccccc2)c1-c1ccccc1	-17%	-2%	-5.3%[38.3 µM]	-3.0	16%	5.0	1%
Cc1ccccc1-n1c(SCC(=O)Nc2ccc3c(c2)OCO3)nnc1-c1ccccn1	-3.3%	-1%	-4.0%	1.1	10%	3.9	10%
COc1nc(Nc2ccccc2F)nc(OC)n1	.	3%	-2.4%	2.9	9%	0.5	29%
O=C(CN1C(=O)NC2(CCCCC2)C1=O)NCc1cccs1	-0.6%	4%	1.6%	-6.9	8%	9.0	1%[15.4 µM]
CCCOc1c(OC)cccc1C1CC(=O)Nc2cc(OC)c(OC)c(OC)c21 (stereo unspecified)	1.6%	-1%	5.2%	-2.3	-10%	-1.2	-1%
CC1(C)CC(=O)C2=C(C1)N(c1ccccc1)C(N)=C(C#N)C2c1cccnc1 (stereo unspecified)	-9.0%	-12%	2.6%	-3.8	-9%	-1.5	-11%

Entries of single compounds, quoted from the list. Screens in order: ClpP mod	gsp antagonist	PINK1 modulator	D2 agonist	Sfp inh	Menin MLL FP FL	gsp ag
`COc1cccc(C(=O)COC(=O)C2CC(=O)N(c3ccc(Oc4ccccc4OC)cc3)C2)c1` (stereo unspecified) in the list: 0.1%	-5%	1.1%	-3.2	3%	.	-34%
`CC1(C)CC(=O)C2=C(C1)N(c1ccccc1)C(N)=C(C#N)C2c1cccnc1` (stereo unspecified) in the list: -9.0%	-12%	2.6%	-3.8	-9%	-1.5	-11%
`O=C(CN1C(=O)NC2(CCCCC2)C1=O)NCc1cccs1` in the list: -0.6%	4%	1.6%	-6.9	8%	9.0	1%[15.4 µM]
`Cc1ccc(C(=O)NCC(=O)Nc2ccc3c(c2)OCCO3)cc1` in the list: -2.9%	6%	-0.5%	-2.5	.	.	6%

(next part)
SMILES	ClpP mod	gsp antagonist	PINK1 modulator	D2 agonist	Sfp inh	Menin MLL FP FL	gsp ag
O=C1CCCCCC1C1(O)C(=O)Nc2ccccc21 (stereo unspecified)	11µM*	5%	0.7%	2.2	12%	-0.6	-3%
Cc1ccc(C2=NN3C(C2)c2ccccc2OC32C(=O)Nc3ccccc32)cc1 (stereo unspecified)	?	-9%	-0.9%	2.4	-27%	14	4%
O=C(O)CCSC1CC(=O)N(c2ccccc2)C1=O (stereo unspecified)	.	6%	3.9%	-2.3	9%	-3.6	-13%
CCc1ccccc1OCC(=O)Nc1cccc(S(=O)(=O)NCc2ccco2)c1	-4.3%	-10%	?	-2.2	.	.	14%
Cc1cccn2c(=O)c3cc(C(=O)NCCc4ccccc4)c(=N)n(Cc4ccco4)c3nc12	.	2%	6.1%	0.4	32µM*	6.7	15%
COc1ccccc1OCc1nnc(SCC(=O)NCc2ccco2)n1-c1ccccc1	-2.8%	-15%	-2.8%[38.3 µM]	-1.0	4%	4.5	-10%
CN1CCN(S(=O)(=O)c2ccc(N(C)Cc3c(F)cccc3Cl)nc2)CC1	-0.8%	11%	-1.1%	8.0	.	.	1%
CCCCOC(=O)C1=C(C)Nc2ncnn2C1c1ccc(OC)c(OC)c1OC (stereo unspecified)	-0.2%	-8%	2.9%[38.3 µM]	-3.6	3%	5.9	1%
COc1ccc(-n2ncc3c2CC(C)(C)CC3NC(=O)CCc2c(C)nn(C)c2C)cc1 (stereo unspecified)	0.1%	-39%	5.2%	1.3	11%	.	-34%[inhibitor]
C#CCOCCOCCOCCNc1nc(N2CCN(C(=O)[C@H]([C@@H](C)CC)n3cc([C@@H](N)Cc4ccc(O)cc4)nn3)CC2)nc(N2CCN(C(=O)[C@H](CCCCN)n3cc([C@@H](N)C(C)CC)nn3)CC2)n1 (stereo partly specified)	-0.8%	14%	-0.1%	-3.0	16%	7.7	.
CC(C)Oc1ccc(C(CC(=O)NCCCN(C)C)c2ccc(F)cc2)cc1 (stereo unspecified)	-11%	21%	6.0%	-2.2	-4%	6.0	-4%
CC(=O)c1ccc(N2C(=O)[C@@H]3[C@H](C2=O)[C@H]2c4ccccc4C=NN2[C@@H]3C(C)=O)cc1	1.0%	10%	1.2%	-0.4	-27%	-13	-11%[15.4 µM]
CCOC(=O)CCSCC(=O)N1N=C(c2cccs2)CC1c1ccc(C)cc1 (stereo unspecified)	28µM*	-9%	-1.3%	-0.1	-5%	0.6	-1%
COc1cc2[nH]c3c(N4CCN(c5ccccn5)CC4)ncnc3c2cc1OC	?	-24%	-1.2%	0.1	10%	1.2	?
CS(=O)(=O)N(CC(=O)Nc1cccc(F)c1)c1cccc([N+](=O)[O-])c1	-0.6%	1%	2.7%	-2.6	12%	1.6	8%
c1ccc(Cn2ccc(-c3cnc(-c4ccccc4)s3)n2)cc1	30%	1%	5.6%	0.0	-18%	2.1	-28%
CCOc1cccc2c1OC1(C)CC2NC(=O)N1Cc1ccccc1 (stereo unspecified)	-0.6%	7%	-1.5%	-8.1	18%	-3.4	-33%[inhibitor]
COc1ccc(C(=O)OCC(=O)NC(=O)NC2CCCC2)cc1[N+](=O)[O-]	.	-6%	2.6%	2.6	.	.	-5%
O=C(CNc1ccccc1C(=O)O)c1ccccc1	-1.7%	4%	6.0%	-8.8	8%	7.6	1%[15.4 µM]
CCc1ccc(OCC(=O)NC(NC(=S)Nc2ccc(C)cc2C)C(Cl)(Cl)Cl)cc1 (stereo unspecified)	-8.2%	-4%	-3.5%	0.8	31%[activator]	5.7	-32%[inhibitor]
COc1ccccc1CNC(=O)CN(CCc1ccccc1)S(C)(=O)=O	.	6%	1.3%	3.8	0%	-1.1	6%
CC(C)N(C(=O)COc1ccc(Br)cc1Cl)C(C)C	?	0%	8.0%	-3.7	17%	-0.8	-38%[inhibitor]

Entries shown so far that contain an NH in an aromatic ring:
SMILES	ClpP mod	gsp antagonist	PINK1 modulator	D2 agonist	Sfp inh	Menin MLL FP FL	gsp ag
CCc1ccc2[nH]c(C(=O)Nc3ccc(C)c(F)c3)cc2c1	23%	-1%	0.3%	-0.5	11%	11	16%
COc1cc2[nH]c3c(N4CCN(c5ccccn5)CC4)ncnc3c2cc1OC	?	-24%	-1.2%	0.1	10%	1.2	?
